miR-21 FLuc – qHTS Assay for Modulators of miRNAs and/orActivators of miR-21. HeLa miR-21 FLuc reporter, luciferase, 48 h. Potency, µM (titrated, usually from 38.3 µM), without a hit: at the highest dose reporter change, positive = more light. 340,000 tested, under 10 active; active = well fitted rising curve with a large enough effect; inconclusive = small, poorly fitted or top-dose-only effect; inactive = no such curve, though single readings can be large or run the other way;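 further: % of control where 0% means no effect; miR-21 action dims this reporter so a rising signal means less miR-21 action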
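Luminescence from a firefly luciferase reporter carrying a miR-21 binding site downstream, stably expressed under a CMV promoter in HeLa cells that make miR-21 endogenously, reports miRNA modulation after 48 h compound exposure up to approximately 40uM final.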
GLA inh pH 4.5 – qHTS Assay for Inhibitors of Human alpha-Galactosidase at pH 4.5; Alpha-galactosidase A (Homo sapiens), P06280; AID 1467, 2008; activity change, negative = inhibition, % at 105 µM; 230,000 tested, under 10 active; purified enzyme, 4-MU-alpha-Gal fluorescence, pH 4.5; inconclusive = small, poorly fitted or top-dose-only inhibition, or a rising curve; inactive = flat fitted curve, though single readings scatter; no compound was filed as active;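 further: 0% = full activity with enzyme and -100% = basal without enzyme; dose as in the result columns while the protocol names 77 µM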
Target sequence (P06280 whole entry, looked up): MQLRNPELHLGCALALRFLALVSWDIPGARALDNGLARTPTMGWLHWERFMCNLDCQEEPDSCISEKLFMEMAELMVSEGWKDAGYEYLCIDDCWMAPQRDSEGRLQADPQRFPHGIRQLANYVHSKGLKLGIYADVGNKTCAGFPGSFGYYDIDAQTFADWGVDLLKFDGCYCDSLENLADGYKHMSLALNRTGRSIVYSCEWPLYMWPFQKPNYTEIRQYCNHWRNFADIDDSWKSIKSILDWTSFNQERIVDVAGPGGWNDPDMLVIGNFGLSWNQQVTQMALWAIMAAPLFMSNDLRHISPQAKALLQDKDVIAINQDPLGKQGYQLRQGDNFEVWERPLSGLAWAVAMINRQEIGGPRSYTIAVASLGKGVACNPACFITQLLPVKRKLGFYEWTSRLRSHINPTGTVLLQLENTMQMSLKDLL
Rango complex inh – qHTS Assay for Inhibitors of Rango (Ran-regulated importin-beta cargo) - Importin beta complex formation; Importin subunit beta-1 (Homo sapiens), Q14974; Rango CFP/YFP FRET sensor + importin beta, 45 min; Potency, µM (titrated, usually from 92.2 µM), for the others: at the highest dose inhibition of complex formation; actives 0.031% (n = 340,000); AID 540263, 2011; active = rising FRET ratio curve, often small or poorly fitted; inconclusive = mostly compound fluorescence or quenching in the first reads; inactive = flat curves in all reads;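 further: potency means the concentration at half of the fitted maximal effect; 0% = DMSO wells and 100% = buffer wells lacking importin beta; nearly all actives have a fitted effect of over 15% in size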
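FRET biosensor Rango (snurportin 1 IBB between N-terminal EYFP and C-terminal Cerulean), 50 nM in PBS/1 mM DTT/0.02% Tween-20/0.1% BSA, preincubated 5 min RT with compound; 0.125 microM importin beta added, 45 min RT, CFP/YFP FRET ratio read.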
Rango release inh – qHTS Assay for Inhibitors of RanGTP induced Rango (Ran-regulated importin-beta cargo) - Importin beta complex dissociation; Biochemical FRET Rango-importin beta, RanGTP-induced dissociation; AID 540253, 2011; Snurportin-1 (Homo sapiens) + GTP-binding nuclear protein Ran (Homo sapiens) + Importin …; actives 0.071% (n = 340,000); Potency, µM (series often up to 46.1 µM), for the others: top-dose activity change, negative = inhibition; active means falling FRET ratio curve, often poorly fitted, with flat reads before Ran was added; inconclusive means other falling curves, or compound fluorescence or quenching; inactive means flat or rising ratio curve;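 further: potency means the concentration at half of the fitted maximal effect; % of control where 0% means no effect; nearly all actives have a fitted effect of over 45% in size; -100% = wells without RanGTP and RCC1; the record marks most hits as doubtful in a second field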
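Two FRET readings bracket the reaction: one 5 min after compound meets Rango–importin beta, another 45 min after RanGTP-RCC1 (0.6 uM Ran, 0.2 uM RCC1, 2 mM GTP) is added. Only the second defines inhibition.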
* marks the source's active call; other numbers are inactive results; u = inconclusive; x = not tested or not shown; & = joins results of further samples.

miR-21 FLuc | GLA inh pH 4.5 | Rango release inh | Rango complex inh | SMILES
6% | 1 | -4% | 2.9% | COc1cccc(NS(=O)(=O)c2ccc(NC(C)=O)cc2)c1
-4% | x | 14% | -4.8% | CCOC(=O)C1CCCN(S(=O)(=O)c2cnc(Cl)c(Br)c2)C1 (configuration not stated)
-1%&-16% | 6 | x | x | Cc1ccc(S(=O)(=O)NCC2CCC(C(=O)NCCCOC(C)C)CC2)cc1 (configuration not stated)
-5% | 3 | -9% | 1.9% | O=C(NC1CC1)c1ccc(F)cc1Cl
-26% | x | -5% | -0.5% | O=c1c2[nH]cnc2n(-c2ccccc2)c(=O)n1Cc1ccccc1
x | x | 11% | -3.5% | COc1ccc(NC(=O)CSCC(=O)Oc2c(OC)cccc2OC)cc1
-49% | 3 | -13% | -3.7% | COc1cccc(CNc2ccc3c(c2)ncn3C(C)C)c1OC
-6% | 8 | 8% | -2.9% | CSc1ccccc1NC(=O)CSc1nncs1
-5% | x | 6% | 3.8% | CCCCCc1ccc(-c2cn(Cc3ccc(C(=O)c4ccccc4)cc3)nn2)cc1
19% | -20 | -3% | 3.9% | CCO[C@H]1OC(C(=O)Nc2ccccc2)=C[C@@H](c2ccc(Br)cc2)[C@@H]1CCCO
-8% | -5 | 22% | 1.1% | COc1ccc(COn2c(=O)c(C)[n+]([O-])c3ccccc32)cc1OC
1% | x | -4% | 0.1% | COc1ccc(CCN(C)C(=O)c2cccc(S(=O)(=O)NCc3ccccc3)c2)cc1OC
u | x | 0% | 0.5% | CCN(CC)c1ccc(/C=C/c2ccc3ccc(OC)cc3[n+]2CC)cc1
14% | -5 | 9% | u | O=C(N/N=C/c1c[nH]c2ccccc12)c1cc2ccccc2o1
9% | x | 11% | -2.1% | CC(NC(=S)Nc1ccc(F)cc1)c1ccccc1 (configuration not stated)
x | x | 18% | 4.6% | O=C1NN=C(c2ccccc2)C1Cc1ccccc1 (configuration not stated)
-57% | x | -8% | -0.6% | COc1ccc(-c2nnc(SCC(=O)N3CCCC3)o2)c(OC)c1
-2% | 5 | u | -0.2% | O=C1CN(Cc2ccccc2)C(=NCc2ccco2)S1
5% | 7 | -7% | 9.4% | O=C(Nc1ccccc1)N(CCCN1CCOCC1)Cc1cc2cc3c(cc2[nH]c1=O)OCCO3
-15% | -12 | -7% | 4.2% | CC(C)Nc1nc(NC(N)=S)nc(NC(C)(C)C)n1
-5%&1% | -1&4 | -6% | 3.5% | Cc1ccc(S(=O)(=O)N[C@@H](C)C(=O)N2CCC(C(=O)N3CCC[C@H]3C(=O)O)CC2)cc1
0% | x | -1% | 3.0% | CCN(C(=O)COC(=O)CSc1ccc([N+](=O)[O-])cc1)C1CCS(=O)(=O)C1 (configuration not stated)
18% | -6 | 10% | u | CC(/C=N/NC(=O)c1cc(-c2ccc(Cl)cc2)nc2ccccc12)=C\c1ccco1
x | x | -2% | -1.9% | Cc1cc(Br)ccc1NC(=O)CSCc1c(C)noc1C
0% | -3 | -4% | 3.0% | CC(C)c1cc(N=NC(N)=O)cc(C(C)C)c1O
0% | x | -3% | 2.7% | COc1ccccc1CCC(=O)Nc1cccc(S(=O)(=O)N2CCOCC2)c1
-1% | -5 | -6% | u | COc1cccc(C(=O)N2CCN(c3ncccn3)CC2)c1
7% | -4 | 12% | 7.2% | N=c1n(CCCOc2ccc(Br)cc2)c2ccccc2n1CC(N)=O
x | x | 3% | 0.8% | COCCCN(C(=O)CCOc1ccccc1C)c1c(N)n(Cc2ccccc2)c(=O)[nH]c1=O
0% | x | 1% | 0.0% | CN(C(=O)c1cc(C(=O)N(C)c2ccccc2)cc([N+](=O)[O-])c1)c1ccccc1
1% | x | 0% | 0.1% | COc1cc(Cl)c(NS(=O)(=O)c2c(C(=O)N3CCCC3)c(C)n(C)c2C)c(OC)c1
3% | 7 | 22% | 3.5% | CN(Cc1ccccc1)Cc1nc2c(c(=O)n(C)c(=O)n2C)n1Cc1ccc(F)cc1
-3% | -2 | 0% | 1.8% | CC(O)(C#CCN1CCOCC1)c1ccccc1 (configuration not stated)
-55% | u | -19% | -1.3% | Cc1ccc2nc(-c3ccc(-c4ccccn4)s3)cn2c1
-8% | -10 | -16% | -0.6% | CCCCCCOc1ccc(C(CC(=O)O)C(N)=O)cc1 (configuration not stated)
-2% | -4 | -14% | 2.4% | CCOC(=O)C1CCN(c2ccc(C(N)=O)cc2[N+](=O)[O-])CC1
x | x | -1% | 4.5% | C=CCOc1ccc(/C=N/n2nnnc2N)cc1OC
-4% | -10 | u | u | O=C(C[n+]1cccc(NC(=O)c2ccccc2)c1)c1ccc(NC(=O)c2ccccc2)cc1
-3% | 3 | -7% | 0.4% | Cc1ccc(NC(=O)CSc2nnc(-c3cccnc3)n2-c2ccc(C)cc2)cc1
-10% | -8 | 0% | 0.3% | CC(=O)Nc1cccc(C(=O)OCc2ccc(C(=O)Oc3ccc(Cl)cc3)cc2)c1
-16% | x | 10% | -0.4% | CCCCCc1ccc(CC(=O)N2CCOCC2)cc1
x | x | 12% | -0.9% | COc1ccccc1C(=O)OCC(=O)Nc1cccc(S(=O)(=O)N2CCCC2)c1
-50% | -13 | 1% | -5.2% | O=C(Nc1ccccc1)C1=C[C@@H](c2ccc(Br)cc2)C[C@@H](OCCCCO)O1
0% | x | 1% | -0.2% | O=S(=O)(/C=C/c1cccc(Br)c1)N1CCOCC1
-21% | x | 0% | 0.4% | Cc1csc(NC(=O)c2ccc(S(=O)(=O)N3CCN(C)CC3)cc2)n1
22% | -12 | 4% | 1.2% | CCCCCC(=O)Nc1cccc(C2=NOC3(C2)C[C@@H](C(N)=O)N(C(=O)c2ccc(Cl)cc2)C3)c1 (some centres not stated)
10% | -3 | -10% | 5.0% | CC(C)CNC(=O)N1c2ccccc2Sc2ccccc21
0% | 5 | u | -0.7% | COc1cc(OC)cc(C(=O)NCC(=O)OCC(=O)c2cc(OC)ccc2OC)c1
-4%&-13% | x | -17% | -1.9% | COc1cccc(N2CCN(C(=O)c3cc4c(s3)-c3ccccc3OC4)CC2)c1
-24% | x | 16% | 0.7% | Cc1ccccc1OC(C)C(=O)Nc1ccc2c(c1)OCO2 (configuration not stated)
2% | x | 25% | -1.1% | CC(=O)Nc1ccc(S(=O)(=O)N(C)C2CCN(C)CC2)cc1
x | x | 0% | 1.1% | COc1ccc(CCc2cc(OC)c(OC)c(OC)c2)cc1
-2% | -6 | -18% | -0.3% | CC(C)(C)NC(=O)COC(=O)c1ccccc1C(=O)c1ccccc1
-1% | -1 | u | -2.9% | CCOC(=O)C1CCCN(c2c(N3CCN(c4ccccn4)CC3)c(=O)c2=O)C1 (configuration not stated)
x | x | -1% | -2.8% | O=C(O)c1cccc2c1C(=O)c1cc(Br)ccc1S2(=O)=O
0% | -1 | -1% | 2.8% | FC(F)(F)c1nnc2ccc(N3CCCCCC3)nn12

Remaining list, next part
miR-21 FLuc | GLA inh pH 4.5 | Rango release inh | Rango complex inh | SMILES
-27% | x | 10% | 0.4% | Cc1ccc(Cn2ccsc2=NC(=O)COC(=O)c2ccc(O)cc2O)cc1
-6% | x | 5% | 2.5% | COc1ccc(NC(=S)NC(=O)c2cc3ccccc3o2)c(OC)c1
7% | x | 20% | 0.4% | O=C(Cc1ccc(Cl)cc1)NCCCNC(=O)c1cccnc1
-4% | -2 | -11% | 1.6% | COc1ccc(CCN(C(=O)C(F)(F)F)C(C(=O)NC2CCCCC2)c2cccs2)cc1 (configuration not stated)
-30% | 11 | -5% | 1.1% | Oc1ccccc1CN1CCCN(Cc2ccccc2O)C1
x | x | -16% | -0.9% | O=C(CN1CCN(S(=O)(=O)c2ccc(F)c(Cl)c2)CC1)N1CCOCC1
0% | 3 | -4% | -0.5% | O=C(NCC1CCCO1)C1c2ccccc2Oc2ccccc21 (configuration not stated)
0% | -19 | 4% | 0.9% | COc1ccc(N2C(=O)C(CC(=O)Nc3ccc(F)cc3)N(CCc3ccc(OC)c(OC)c3)C2=O)cc1 (configuration not stated)
-3% | 2 | -10% | -0.2% | CC(C)CCN1CCN(CC#Cc2ccccc2)CC1CCO (configuration not stated)
-18% | 3 | 11% | 6.5% | O=C(Nc1cc(Cl)ccc1Cl)c1ccc(OC(=O)c2ccco2)cc1
-1% | x | 2% | -0.2% | COc1ccc(N2CCN(CCNS(=O)(=O)c3ccc(C)cc3)CC2)cc1
-1% | x | -1% | 0.0% | COc1ccc(CNC(=O)CNC(=O)CNS(=O)(=O)c2ccc(C)c(C)c2)cc1
x | x | 2% | 0.4% | Cc1ccc(NC(=O)COC(=O)c2cc(=O)c3ccccc3o2)c(Br)c1
-9% | -7 | 7% | -1.5% | O=C(COc1ccccc1Cl)Nc1cnn(Cc2ccccc2)c1
-33% | 8 | -1% | 0.6% | COc1ccc(C2Nc3ccccc3C(=O)N2c2ccccc2)cc1COc1ccccn1 (configuration not stated)
-26% | -22 | 2% | -5.8% | COc1ccc(Oc2ccc(C(F)(F)F)cc2N)cc1

One compound at a time, as listed above. Values in the order: miR-21 FLuc | GLA inh pH 4.5 | Rango release inh | Rango complex inh
O=C(Nc1cc(Cl)ccc1Cl)c1ccc(OC(=O)c2ccco2)cc1 is listed as -18% | 3 | 11% | 6.5%
COc1ccc(CNC(=O)CNC(=O)CNS(=O)(=O)c2ccc(C)c(C)c2)cc1 is listed as -1% | x | -1% | 0.0%
COc1ccc(Oc2ccc(C(F)(F)F)cc2N)cc1 is listed as -26% | -22 | 2% | -5.8%
CC(C)CCN1CCN(CC#Cc2ccccc2)CC1CCO (configuration not stated) is listed as -3% | 2 | -10% | -0.2%
COc1ccc(N2CCN(CCNS(=O)(=O)c3ccc(C)cc3)CC2)cc1 is listed as -1% | x | 2% | -0.2%

New compounds follow
miR-21 FLuc | GLA inh pH 4.5 | Rango release inh | Rango complex inh | SMILES
-7% | 7 | -3% | 1.0% | COc1cc(C)ccc1S(=O)(=O)N1CCCCCC1
-2% | 9 | -5% | -0.2% | O=C(COc1cccc([N+](=O)[O-])c1)N/N=C/c1ccco1
-19% | -6 | -1% | -0.3% | Cc1c(C(=O)N2CCc3ccccc3C2)sc2nc(-c3ccccc3)cn12
15% | x | 2% | -1.3% | C=CCNC(=S)/N=c1/ccccn1Cc1ccccc1
-2% | 13 | -10% | -0.3% | O=C(NOC(=O)c1cc(Br)ccc1Cl)c1cccs1
-4% | 1 | -6% | 1.7% | COc1ccccc1OCCOc1ccc(/C=N/n2cnnc2)cc1
-34% | -5 | -3% | 5.7% | Cc1ccc(NC(=O)c2ccc([N+](=O)[O-])cc2Cl)nc1
1% | -17 | 1% | u | COc1cccc(Cn2c(Oc3cccc(C)c3)nc3c2c(=O)n(C)c(=O)n3C)c1
-1% | 0 | -3% | -1.4% | CC1CCc2c(nc3sc4c(c3c2N)CCCC4)C1 (configuration not stated)
27% | x | -13% | -0.4% | Cc1ccc(NC(=O)C2CCN(S(=O)(=O)c3ccc(N4CCCC4=O)cc3)CC2)cc1Cl
x | x | 0% | -2.1% | Oc1ccc2ccccc2c1CN1CC2CCC(CC2)C1
1% | -8 | 22% | -1.6% | Cc1ccc(S(=O)(=O)/N=S(\C)CC2CC2(Cl)Cl)cc1 (configuration not stated)
-4% | 7 | 4% | 3.9% | CCOC(=O)C1=C(C)C(c2ccc(OC)cc2)NC(=S)N1 (configuration not stated)
-8% | -3 | 5% | 2.8% | COC(=O)c1sc(C(C)(C)C)cc1CSc1ccccc1
-1% | -5 | 1% | 0.0% | COC(=O)C1c2ccccc2-c2ccccc21
-7% | 2 | -8% | -0.3% | Nc1nc(SCc2ccccc2Cl)nc2nc3c(cc12)CCCC3

Screening results from PubChem.

Some of the compounds tested; count on the stated rates, not on these rows.
